Compound activity (PubChem)
rRNA inh HTS – inhibits bacterial ribosomal RNA function over humanized ribosomes; E. coli WT GFP vs humanized-ribosome RFP mutants, fluorescence, 24 h; hits give low values; DMSO median 0, no signal -100; GFP signal change (wild-type ribosome), % (concentration not given with the values); hit rate 1.6% among 350,000;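 active = significant combined selectivity score with lowered wild-type GFP, culture density cut under 30%, mutant RFP and density less affected; inactive = any of these conditions unmet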; also: one replicate is shown; some compounds called inactive have numbers as strong as hits
Vif TR-FRET – HIV-1 Vif–A3G interaction blockers – biochemical, TR-FRET, GST-Vif 1-94, biotin-A3G peptide, dose response retest, primary screen (AID 1117319). TR-FRET GST-Vif / biotin-A3G peptide binding; higher % means a stronger effect; test concentration not given here; strong numbers were not always called active. inhibition, %; hits with a dose series show IC50 in µM. hit rate 0.57% among 260,000;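 active = above the screen mean plus three standard deviations and confirmed in dose response; inconclusive = results disagree or hit not tested in dose response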;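 also: Vif residues 1-94 fused to GST binding biotinylated APOBEC3G peptide 110-148; 0% = full assay without inhibitor and 100% = GST in place of GST-Vif; retest series ran down from 100 µM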
Calb FLC – affects C. albicans growth with fluconazole | C. albicans CaCi-2 (fluconazole-resistant clinical isolate) + fluconazole, Alamar Blue growth, 48 h | growth inhibition, % (test concentration not listed) | hit rate 0.57% among 300,000 | AID 1979;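 active = most replicates above 75%; inconclusive = exactly half above 75%; inactive = most below 75%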;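 also: all wells also contain fluconazole at 8 µg/ml as a sub-toxic cotreatment; 0% = median of DMSO wells and 100% = median of geldanamycin control wells; wells of about 8 µL received 7.5 nL stock; the first replicate is given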
A1 inh – inhibitors of the anti-apoptotic protein A1, read as caspase activation; hit rate 0.066% among 330,000; AID 2462; MEF A1-2A-BIM cells, Caspase-Glo 3/7 luminescence, 3 h; percent of clofoctol response, vehicle zero; caspase activation, % (concentration not given with the values);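 active = over half of replicate activation scores above 10%, or exactly half above 10 with the replicate mean above 10; inconclusive = replicate mean below 10 yet half the replicates above 10; inactive = over half of replicates below 10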;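 also: wells of about 30 µL received 50 nL stock; many hits fall short of the cut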
Beta apoptosis – blocks beta cell apoptosis | INS-1E cytokine-induced death, ATP luminescence, 48 h; percent of positive-control rescue, neutral wells zero | protection from apoptosis, % (test concentration not listed) | hit rate 0.8% among 300,000 | AID 435005;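 active = all replicates at 75% or more, or half of them and the mean; inconclusive = half reach 75% but not the mean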;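 also: 0% = cytokine-treated negative control wells and 100% = positive control rescue; higher means more ATP so stronger rescue from cytokine killing; wells of about 40 µL received 100 nL stock; the first replicate is given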
AF4-AF9 inh – MLL-AF4/AF9 protein interaction inhibition; P42568; AlphaScreen, biotin-AF4 peptide binding to FLAG-AF9; inhibition, % at 10 µM; hit rate 0.47% among 350,000;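 active = every replicate reaching a set inhibition limit, whatever the replicate mean, cut at about 25% in these data; inconclusive = mean inhibition reaches that limit but some replicates miss it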;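 also: 0% = plate neutral control median and 100% = total signal loss; the record names both 10 and 1 µM as test concentration; the first replicate is given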
Target sequence (P42568 whole entry, looked up): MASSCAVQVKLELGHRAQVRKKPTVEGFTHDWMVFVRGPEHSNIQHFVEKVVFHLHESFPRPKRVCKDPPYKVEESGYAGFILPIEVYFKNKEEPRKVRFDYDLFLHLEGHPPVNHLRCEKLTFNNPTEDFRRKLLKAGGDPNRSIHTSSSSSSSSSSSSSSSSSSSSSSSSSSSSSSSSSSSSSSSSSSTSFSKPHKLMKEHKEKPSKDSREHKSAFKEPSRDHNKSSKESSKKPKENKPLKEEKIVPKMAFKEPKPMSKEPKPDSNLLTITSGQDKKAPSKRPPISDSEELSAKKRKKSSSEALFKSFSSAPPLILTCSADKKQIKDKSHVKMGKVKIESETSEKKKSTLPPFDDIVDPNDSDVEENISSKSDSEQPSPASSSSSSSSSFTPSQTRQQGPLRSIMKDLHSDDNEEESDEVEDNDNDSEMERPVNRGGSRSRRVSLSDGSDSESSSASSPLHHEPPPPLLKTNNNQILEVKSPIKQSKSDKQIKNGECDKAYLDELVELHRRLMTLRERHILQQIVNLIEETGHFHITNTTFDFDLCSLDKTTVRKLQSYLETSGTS
T cruzi repl – blocks replication of Trypanosoma cruzi; T. cruzi beta-gal in NIH3T3, luminescence, 90 h; inhibition, % (test concentration not listed); hit rate 1.4% among 300,000; AID 1885;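 active = mean inhibition across valid replicates above about 55%, limit read from the data; inconclusive = mean below that limit but half or more replicates reach it; inactive = mean below it, under half of replicates reach it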;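 also: signal also drops with host cell toxicity which is not excluded here; 0% = plate median of DMSO wells and 100% = zero luminescence signal; higher percent means less beta-gal luminescence so fewer parasites; stock transfer was 50 nL into about 50 µL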
RanGTP-Impb inh – disruptors of Ran-importin-beta complex formation – biochemical, FRET, CFP-Ran, YFP-importin-beta, homogeneous, primary screen | hit rate 1.1% among 300,000 | inhibition, % (test concentration not listed) | cell-free CFP-Ran/YFP-importin-beta FRET ratio;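 active = most replicates above 15%; inconclusive = exactly half above 15%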;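 also: 0% = DMSO wells and 100% = Ran loaded with GDP instead of GTP; wells of about 40 µL received 100 nL stock; the first replicate is given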
rRNA inh HTS OD600 – recorded beside rRNA inh HTS, whose call it bears; OD600 change, %; measured here: OD600 growth;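 optical density of the mix in the first replicate; 0 = DMSO median and -100 = no signal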
rRNA inh HTS RFP – also measured in rRNA inh HTS; calls as there; RFP signal change, %; measured here: RFP humanized mutant strains;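 first replicate; 0 = DMSO median and -100 = no signal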
Starred values were filed as active, the others as inactive; u = inconclusive; x = not tested or not shown; & = joins results of further samples. Some of the compounds tested; the hit share may differ from the screen's.

Start of the data: the first four compounds as a preview:
compound | A1 inh | rRNA inh HTS OD600 | Calb FLC | Vif TR-FRET | Beta apoptosis | T cruzi repl | AF4-AF9 inh | RanGTP-Impb inh | rRNA inh HTS | rRNA inh HTS RFP
Cc1cccc2cc(C(c3nnnn3C(C)(C)C)N(Cc3ccco3)CC3CCCO3)c(=O)[nH]c12 (stereo not given) | -0.2 | x | 9 | 2% | -6 | 3 | x | u | x | x
O=C(N/N=C/c1cccnc1)c1cccc(NC(=O)c2cccc(Br)c2)c1 | 0.2 | -5 | 0 | x | 2 | 11 | 1.5 | 0.7 | -3 | -2.9
CC(C)NC(=O)c1ccc(NC(=O)CC2SC(N3CCCC3)=NC2=O)cc1 (stereo not given) | 1.0 | x | x | -14% | -9 | x | -2.7 | x | x | x
COc1cccc(CC(=O)OCC(=O)c2cc(OC)c(OC)c(OC)c2)c1 | -1.0 | -4 | x | x | 0 | x | -2.2 | x | -14 | 1.4

All compounds of this part, from the start:
compound | A1 inh | rRNA inh HTS OD600 | Calb FLC | Vif TR-FRET | Beta apoptosis | T cruzi repl | AF4-AF9 inh | RanGTP-Impb inh | rRNA inh HTS | rRNA inh HTS RFP
Cc1cccc2cc(C(c3nnnn3C(C)(C)C)N(Cc3ccco3)CC3CCCO3)c(=O)[nH]c12 (stereo not given) | -0.2 | x | 9 | 2% | -6 | 3 | x | u | x | x
O=C(N/N=C/c1cccnc1)c1cccc(NC(=O)c2cccc(Br)c2)c1 | 0.2 | -5 | 0 | x | 2 | 11 | 1.5 | 0.7 | -3 | -2.9
CC(C)NC(=O)c1ccc(NC(=O)CC2SC(N3CCCC3)=NC2=O)cc1 (stereo not given) | 1.0 | x | x | -14% | -9 | x | -2.7 | x | x | x
COc1cccc(CC(=O)OCC(=O)c2cc(OC)c(OC)c(OC)c2)c1 | -1.0 | -4 | x | x | 0 | x | -2.2 | x | -14 | 1.4
COc1ccc(S(=O)(=O)Cc2ccc(C(=O)NCC(OC)OC)o2)cc1 | 1.5 | 8 | -4 | 0% | -6 | -2 | -1.7 | -1.8 | -2 | -0.5
COc1cccc(C(=O)NC2CC3CCCC(C2)N3CC(=O)Nc2ccccc2C(F)(F)F)c1 (stereo not given) | -0.4 | -28 | 2 | x | 12 | 15 | 0.8 | 2.1 | -16 | -0.1
O=C(Cc1ncc(C(F)(F)F)cc1Cl)N1CCN(c2cccc(Cl)c2)CC1 | -0.2 | x | 9 | 1% | 3 | 4 | x | 4.5 | x | x
O=C(CCC1CCCC1)N1CCC(N2CCN(c3ccccc3)CC2)CC1 | -0.3 | x | -19 | 3% | -4 | 10 | x | -1.5 | x | x
Cc1cc(C2(c3ccc(O)c(C)c3)C(=O)N(C)c3ccc(Br)cc32)ccc1O | -0.2 | -21* | 6 | x | x | -6 | 0.0 | 7.9 | -40* | -4.3*
CCn1c(CC(=O)Nc2ccc(C)c(Cl)c2)nnc1SCc1ccc(Cl)c(Cl)c1 | -0.1 | x | 5 | 5% | -2 | -16 | x | -3.4 | x | x
C=CCn1cccc(/C=C/C(=O)c2ccc(C(C)(C)C)cc2)c1=S | 0.2 | x | -30 | 13% | 1 | 13 | x | -5.1 | x | x
Cc1nn(Cc2ccccc2)c(C)c1NC(=O)CCC(=O)O | 0.1 | x | -16 | 5% | -11 | -26 | x | u | x | x
CCOC(=O)C#CC(CCc1ccccc1)OS(N)(=O)=O (stereo not given) | 0.2 | -9 | 10 | x | -7 | -4 | -6.2 | 6.3 | -1 | -8.1
Clc1ccc(-c2cn3cccnc3n2)cc1 | -1.6 | x | -10 | -1% | x | -2 | x | 5.5 | x | x
COc1ccc(/C=N/Nc2nc3ccccc3s2)cc1O | x | -80 | 27 | -13% | x | 50 | 2.9 | 1.6 | -59 | -24
C=CCSc1nc2sc3c(c2c(=O)[nH]1)CCC3 | -0.9 | 16 | 5 | 15% | 9 | -6 | -1.6 | -7.4 | 21 | -0.6
CN(C)C(=O)CCSc1nnc(-c2ccncc2)o1 | 0.6 | 5 | -8 | 0% | -6 | -4 | 1.9 | 7.8 | 10 | -0.2
CCCn1c(C)cc(C(=O)COC(=O)c2ccc(Cl)c(S(=O)(=O)N3CCCC3)c2)c1C | 0.5 | x | -3 | -9% | 1 | 22 | x | 1.0 | x | x
COCC(C)n1c(C)cc(C(=O)CSc2nnc(N)s2)c1C (stereo not given) | 0.6 | x | 10 | 10% | 1 | 13 | x | 4.1 | x | x
CCCCc1nc(S(=O)(=O)c2ccc(Cl)cc2)c(N2CCOCC2)o1 | -0.4 | x | 2 | x | 3 | 13 | x | -0.3 | x | x
Cc1nn(-c2ccccc2)c(C)c1NC(=O)COC(=O)c1cc([N+](=O)[O-])ccc1NCCO | -0.3 | 8 | 0 | x | 4 | -3 | -2.1 | 4.9 | 7 | 5.7
CCCOC(=O)CSC1=C(C#N)C(c2ccccc2Cl)CC(=O)N1 (stereo not given) | x | -16 | -3 | -1% | x | 12 | -1.3 | -5.5 | -3 | 1.7
CC(C)N1C2OC(C3OC4C(O3)N(C(C)C)S(=O)(=O)N4C(C)C)OC2N(C(C)C)S1(=O)=O (stereo not given) | 0.3 | x | 67 | 2% | -7 | -19 | x | 0.2 | x | x
O=C(Nc1nc2ccccc2s1)c1cc(-c2ccccc2)nn1-c1ccccc1 | 0.6 | 9 | 0 | 0% | 111* | 21 | 4.8 | -2.4 | 19 | 1.6
Cc1ccsc1/C=N/NC(=O)c1cc(-c2ccncc2)nc2ccccc12 | 0.4 | -7 | 1 | 29% | 4 | -49 | 11 | 0.7 | -11 | 2.4
CCN(CC)CCNC(=O)c1ccc(NC(=O)c2cc(-c3ccco3)nc3ccccc23)cc1 | 0.1 | 12 | 24 | -1% | 12 | 23 | 1.7 | 2.2 | 0 | -1.4
CN(C)C(=O)CN1C(=O)NC2(CCc3ccccc32)C1=O (stereo not given) | -0.3 | 10 | -1 | x | -2 | -20 | -0.1 | 1.4 | 5 | -0.7
C#CCOCCOCCOCCNc1nc(N2CCN(C(=O)[C@H](CCCCN)n3cc(CCC(=O)O)nn3)CC2)nc(N2CCN(C(=O)[C@H](CCCCN)n3cc(CC(C)O)nn3)CC2)n1 (stereo not given in full) | 0.0 | 2 | x | x | -3 | x | 1.6 | x | -4 | -3.9
Cc1ccccc1OCC1CN(CN2CCOCC2)C(=O)O1 (stereo not given) | -0.6 | x | -3 | -11% | x | 4 | x | u | x | x
O=C(COC(=O)c1cc(S(=O)(=O)N2CCOCC2)cs1)c1ccccc1 | -0.5 | x | 21 | -2% | 3 | -9 | x | x | x | x
O=C(CSc1nnc(-c2ccc(NS(=O)(=O)c3ccccc3)cc2)o1)NCC1CCCO1 (stereo not given) | 0.1 | x | -5 | 6%&19% | 6 | -2 | x | -2.4 | x | x
COc1ccc(-c2csc(NC(=O)CN3C(=O)C4CC=CCC4C3=O)n2)cc1OC (stereo not given) | 1.0 | -31 | 8 | x | -1 | -23 | -13 | u | -17 | 0.0
COc1ccc(-n2c(SCC(=O)Nc3ccc(Cl)cc3)nc(O)c(Cc3ccccc3)c2=O)cc1 | 0.9 | -3 | -2 | x | -2 | -8 | -0.5 | -0.8 | -2 | -1.2
O=C(O)COc1ccccc1/C=N/NC(=O)CSc1nc2ccccc2c(=O)n1-c1ccccc1 | 0.3 | -1 | -5 | 11% | -5 | -2 | -0.7 | -1.1 | 9 | 0.5
CCn1cc(Cl)c(C(=O)Nc2cc(C(=O)OC)cc(C(=O)OC)c2)n1 | -0.4 | -1 | 16 | 26% | 5 | -7 | -0.5 | 0.0 | -1 | -0.5
COC(=O)c1cn(C)c2ccc(S(=O)(=O)N3CCCCC3)cc2c1=O | x | x | -2 | 9% | x | -4 | x | -3.5 | x | x
CCN(CC(=O)Nc1ccc2c(c1)OCCO2)C(=O)CSCC(=O)Nc1ccc(C)cc1 | 1.2 | 0 | 0 | 5% | -4 | -7 | -0.2 | 3.6 | -1 | 0.7
COc1ccc(OC)c(Nc2nc3ccc(C)cc3n3cnnc23)c1 | -1.0 | -5 | -7 | -1% | 14 | 24 | -2.7 | 4.1 | -4 | -6.3
Cc1ccccc1Nc1nc(=O)c2cc([N+](=O)[O-])ccc2s1 | -0.7 | x | -3 | 7% | -7 | 2 | x | -1.3 | x | x
O=S(=O)(NCC(c1cccnc1)N1CCN(c2ccccc2F)CC1)c1cccs1 (stereo not given) | -0.5 | -14 | -6 | -2% | -6 | 45 | 18 | -3.5 | 3 | 4.5
COc1ccc(-c2cc(C(=O)O)nc3ccc4ccccc4c23)cc1OC | -1.4 | -4.6* | 13 | -1% | -1 | -15 | 0.7 | 18* | -29* | -3.6*
CC(=O)Nc1ccc(NC(=O)COC(=O)c2ccccc2C(=O)c2ccccc2)cc1 | 0.3 | -14 | x | -2% | -1 | x | 1.4 | x | -8 | -1.7
CCOC(=O)Nc1cc(Br)c2c(c1)OCCO2 | -4.1 | x | 10 | -3% | 4 | -6 | x | -2.0 | x | x
COc1ccc2cc(CN(CCCN3CCOCC3)Cc3nnnn3C3CCCCC3)c(=O)[nH]c2c1 | 0.5 | x | 0 | -4%&4% | -6 | -8 | x | 3.8 | x | x
O=C(NC(=S)N(Cc1ccccc1)c1ccccn1)C1CC1 | -1.2 | 1 | -6 | x | -9 | -11 | -1.9 | 5.4 | 9 | 0.4
CCCCCOc1ccc(CSc2n[nH]c(C)n2)cc1 | -1.1 | -63 | -3 | 1% | x | 36 | -2.5 | -2.5 | -43 | -4.9
CCc1nc(SCC#N)c(C#N)cc1C | 0.3 | x | -12 | 1% | 6 | -3 | x | 1.8 | x | x
Cc1cc(C)c(CSc2ncc(-c3ccc([N+](=O)[O-])cc3)[nH]2)c(C)c1 | -1.2 | x | -2 | -4% | 7 | 58* | x | -17 | x | x
COCc1c(C(=O)OCc2c(C)noc2C)oc2ccccc12 | 0.4 | -2 | 0 | -5% | 3 | -5 | -2.0 | -1.2 | -6 | -1.4
O=C(/C(=C(\[O-])c1ccccc1)[n+]1ccc2ccccc2c1)c1ccc([N+](=O)[O-])cc1 | 0.0 | x | 4 | x | -2 | 1 | x | -4.8 | x | x
Cc1ccc([C@@H]2CC=C(C(=O)O)[C@H](c3cccc(Cl)c3)N2S(=O)(=O)c2ccc(C)cc2)cc1 | 0.6 | -49 | x | x | -2 | x | -2.5 | x | -36 | 3.9
